Screening data: PubChem, several laboratories
Sa ugtP lethal: growth inhibition of ugtP-null S. aureus, primary screen, RN4220 ugtP deletion, OD600. 16 h; some inactives read as strong as hits. growth inhibition, % (test concentration not listed). 0.54% of 330,000 active;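 active means z-score under -3 and OD600 up to 0.15 on both plates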;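 further: plate controls were untreated wells for no effect and antibiotic for full effect; wells of about 80 µL received 100 nL stock; the first replicate is given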
Mtb hypoxia rep: PubChem AID 1159583; M. tuberculosis hypoxia-regulated fluorescent reporter, fluorescence; fluorescence inhibition, % (test concentration not listed); 0.1% of 300,000 active;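 active means 35 to 45% if threefold the growth effect, above 45% if 1.5-fold the growth effect; inactive means the rest, general growth blockers included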;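 further: wells of about 50 µL received 100 nL stock; 0% = vehicle wells and 100% = reference inhibitor wells; whole bacteria with a GFP reporter of the hypoxia response; strong numbers were not always called active; many hits fall short of the cut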
Sa RN4220 lethal: growth inhibition of S. aureus RN4220, primary screen, OD600. 0.33% of 330,000 active. 16 h. inhibition, % (test concentration not listed);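 active means z-score of -3 or lower and OD600 up to 0.18 on both plates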;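 further: plate controls were untreated cells for no effect and reference antibiotic for full effect; stock transfer was 100 nL into about 80 µL; one replicate is shown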
Bead autofluor: flagged as autofluorescent in microsphere protease counterscreen; 3.1% of 360,000 active; fluorescence intensity (concentration not given with the values); AID 624483; compound autofluorescence counterscreen, microsphere flow cytometry; stronger effect = higher value;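 active means at least 3 SD above the mean of all compounds, about 16000 in these data; inconclusive means too few beads counted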;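 further: 100 nL of 1 mM stock went into each well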
PrP UTR inh: inhibition of PrP 5' UTR reporter expression; AID 488862, 2010; cell-based PrP 5' UTR mRNA reporter, plate reader; inhibition, % (no concentration beside the values); 0.35% of 340,000 active;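 active means every replicate at 50% or more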;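 further: 0 = median of the neutral control wells; tested in H4 reporter cells; numbers are from one replicate; inactives centre near -14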
BJeLR lethal: MLPCN primary cell-based screen for lethality selective to Ras in HRASV12 cells; 0.17% of 300,000 active; BJeLR (HRASV12) viability, CellTiter-Glo ATP luminescence, 48 h; reference of the scale not given here; AID 1554, 2009; inhibition, % (concentration not given with the values);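 active means replicate mean above 50%; inconclusive means above 50% but judged a plate artefact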;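 further: 50 nL library stock added to about 25 µL; numbers are from one replicate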
Mtb hypoxia rep growth: recorded beside Mtb hypoxia rep, whose call it bears; growth inhibition, %; measured here: M. tuberculosis growth (absorbance);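 0% = vehicle and 100% = reference antibiotic; read after six days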
* marks the source's active call; other numbers are inactive results; u = inconclusive; x = no result given.

Value order: Sa ugtP lethal	Mtb hypoxia rep	Mtb hypoxia rep growth	Sa RN4220 lethal	Bead autofluor	PrP UTR inh	BJeLR lethal
C/C(=C\c1ccccc1)CN1CCN(c2cccc(Cl)c2)CC1
→ 10	1	7	9.0	9261	-5	1
O=C(O)c1ccc(CSc2nnc(COc3ccc(Cl)cc3Cl)o2)cc1
→ 0	-2	11	14	5865	-10	8
C=CCN(C(=O)c1csnn1)C(C(=O)NC1CCCCC1)c1ccc(Cl)cc1 (centres undefined)
→ 1	14	3	1.7	4456	-13	-8
O=c1oc2ccccc2cc1-c1csc(Nc2ccc(O)cc2)n1
→ 0	-6	3	-1.7	3885	-147	-1
CCc1ccc(S(=O)(=O)Nc2ccc(O)c3c(=O)cc(-c4ccccc4Cl)oc23)cc1
→ -36	9	9	-7.8	3262	-5	11
CC(C)NC(=O)Cn1cnc2c(cnn2-c2ccc(F)cc2)c1=O
→ 5	-4	8	1.4	3585	-4	25
Nc1c(S(=O)(=O)c2cc(Cl)ccc2Cl)c2nc3ccccc3nc2n1CCN1CCOCC1
→ 32	6	3	-2.9	24321*	-3	-3
CCOC(=O)c1sc(=S)n(-c2ccc(Cl)cc2)c1C
→ 13	x	x	8.3	3444	-14	-8
COc1ccc(S(=O)(=O)NCc2ccccn2)cc1NC(=O)c1ccc(C)cc1
→ 3	-15	6	2.0	u	-13	21
Cc1nc(-c2cc(-c3nc(-c4cc(C(F)(F)F)cc(C(F)(F)F)c4)no3)no2)cs1
→ 3	0	3	7.0	6180	x	-9
CN(C)C(CNC(=O)c1cccc(S(=O)(=O)N2CC3(C)CC2CC(C)(C)C3)c1)c1ccco1 (centres undefined)
→ 0	6	9	5.5	9739	-23	-2
C[C@H]1CN=C(N(C)C)N1CCc1cccc(F)c1
→ 5	6	14	-6.0	3278	-15	x
Nn1c(SCC(=O)N2CCCc3ccccc32)nnc1-c1ccccc1
→ 7	x	x	-0.6	4957	-17	6
C=CCn1c(COc2ccc(OC)cc2)nnc1SC(C)C(=O)NC1CC1 (centres undefined)
→ -6	-3	1	-2.8	6011	-20	x
N/C(=N\OC(=O)c1ccc2c(c1)OCO2)c1cccc([N+](=O)[O-])c1
→ x	x	x	x	2549	-90	-6
O=C1C(=O)N(CCCN2CCOCC2)C(c2ccc(F)cc2)/C1=C(/O)c1ccccc1 (centres undefined)
→ -3	-4	4	1.6	3926	-22	9
CCOc1ccccc1NC(=S)NCc1ccccc1
→ 0	-10	-8	0.2	3759	-3	-16
O=C(NC(=O)c1ccc(Cl)cc1)Nc1ccc(-c2cnco2)cc1
→ -20	0	-6	4.4	x	x	-8
O=C(NCc1cccnc1)NC(=O)c1ccc(Cl)cc1
→ 1	7	2	1.8	5849	-2	0
O=C(COC(=O)c1cccc(S(=O)(=O)N2CCOCC2)c1)Nc1ncc(C(F)(F)F)cc1Cl
→ -17	6	0	10	8683	-12	-6
CC1=C(c2ccccc2)[N+](=O)C2(CCCCC2)N1[O-]
→ -2	3	3	5.4	2256	-24	0
NNC(=O)c1cncn1-c1ccc(F)cc1
→ 0	1	15	6.2	3415	-15	2
O=C(NCCCN1CCCCCC1)c1ccc2c(c1)NC(=O)C(N1CCOCC1)S2 (centres undefined)
→ -1	-1	9	-0.6	4167	-14	-6
COc1ccc(CCNC(=O)COC(=O)c2cc(=O)[nH]c3ccccc23)cc1
→ 3	4	19	1.2	3514	0	x
S=C(NCCc1ccccc1)NCCc1cnc[nH]1
→ 13	6	-3	5.4	3725	-31	5
CCc1nnc(NN=Cc2cccs2)n1N
→ 5	2	-7	7.4	x	x	x
O=C(CCc1ccc(S(=O)(=O)N2CCOCC2)cc1)Nc1c(F)cccc1F
→ -2	3	9	0.7	4735	-21	x
C=CCOc1ccccc1CN1CCC(Oc2ccc(C(=O)N3CCCC3)cc2)CC1
→ 2	0	2	2.3	4434	-18	6
C=CCn1c(SCC(=O)NCCO)nc2sc(C)c(C)c2c1=O
→ 0	-6	-5	-1.0	2147	-4	9
CC(=NNc1ccc(F)cc1)c1ccc(N2CCOCC2)c(F)c1
→ -7	-10	-9	1.8	x	x	x
COc1cccc(-n2nnc3c(=O)n(CC(=O)Nc4cc(C)on4)cnc32)c1
→ 1	-14	4	0.8	2690	-36	3
Cc1oc(-c2ccccc2)nc1C(=O)OCC(=O)NCc1ccccc1
→ -1	-4	-2	0.0	6694	1	x
O=C(NCCCCCNC(=O)c1cccnc1)c1cccnc1
→ 5	x	x	-0.2	4329	-16	2
COc1cccc(-n2nnc3c(=O)n(CC(=O)N4CCCc5ccccc54)cnc32)c1
→ 11	6	4	-2.8	11112	-4	-7
COCCN(CCOC)C(=O)c1cc2sc3ccccc3c2s1
→ 4	5	3	5.2	7907	-14	5
Cc1ccc(/C=C/C(=O)OCC(=O)c2ccc3c(c2)NC(=O)CO3)o1
→ -5	4	5	4.8	3811	-17	x
CCCOc1ccc(OCCn2nc(C(=O)O)c3ccccc3c2=O)cc1
→ 22	1	-3	8.1	3471	-18	3
CCn1c(-c2cc(C3CC3)nc3ccccc23)n[nH]c1=S
→ -1	3	4	3.4	2405	-7	-6
Cc1ccc(/C=C/C(=O)Nc2ccc(N(C)C)cc2)o1
→ 4	x	x	6.4	1275	-78	-10
Fc1ccc(NC(=S)N2N=CCC2c2ccccc2)cc1 (centres undefined)
→ 1	-4	8	-3.7	8968	-35	4
Cc1cc(S(=O)(=O)N2CCCOC2CNC(=O)C(=O)NCCc2ccco2)ccc1F (centres undefined)
→ 3	4	0	2.8	6415	-14	6
COC(=O)CCCC(=O)N1CCOCCN(C(=O)CCCC(=O)OC)CCOCC1
→ -2	x	x	-0.3	4873	-8	-2
COc1ccc(-c2nc(CS(=O)CC(=O)N3CCN(C)CC3)c(C)o2)cc1 (centres undefined)
→ 11	4	-9	2.3	5504	-10	11
CC(C)CN(CC(C)C)C(=S)Nc1ccc(Cl)cc1
→ -7	-2	1	1.8	3203	-8	0
CCN1CCN(c2ccc(S(=O)(=O)N3CCCCC3)cc2NC(=O)c2ccccc2)CC1
→ 3	1	-3	3.3	x	-10	-8
COc1ccc(-c2cc(C(=O)NCc3ccco3)no2)cc1OC
→ -7	-3	9	-1.0	3394	-30	x
CN(C)c1ccc(C=NNC(=O)c2nnn(-c3nonc3N)c2CN(C)c2ccccc2)cc1
→ -1	-8	-5	2.5	x	x	x
Cc1ccc(S(=O)(=O)NC(CC(=O)O)c2cccs2)cc1 (centres undefined)
→ 4	6	2	4.0	5400	-28	-1
COc1ccccc1NC(=O)CC1C(=O)NCCN1C(=O)Nc1ccccc1 (centres undefined)
→ 5	3	12	0.9	21334*	-4	-9
CC1=C(C#N)C(=O)NC(C)(C)C1
→ -3	21	-20	-16	2927	-4	6
CN(C(=O)c1cccc(S(=O)(=O)N2CCOCC2)c1)c1c(N)n(Cc2ccccc2)c(=O)[nH]c1=O
→ -5	-6	-7	-3.2	3965	x	x
CCOC(=O)C1=C(C)OC(N)=C(C#N)C1c1cccc(C)c1 (centres undefined)
→ 6	-10	0	4.0	5212	-8	1
COc1ccc(C(=O)C2CCCN(Cc3ccc(Sc4nncn4C)o3)C2)cc1F (centres undefined)
→ 1	6	-5	3.1	5449	-32	-5
CCOc1cc2c(cc1OCC)C(c1ccccc1OC)OC(=O)C2 (centres undefined)
→ -2	4	8	3.9	7252	2	-9
S=c1[nH]c(-c2ccc(Cl)cc2)cs1
→ 1	-2	3	-1.9	4374	-58	7
O=C(NCCCn1ccnc1)C(Cl)(Cl)Cl
→ 2	-4	3	3.5	2719	-8	1
Oc1ccc(Cl)cc1C(C#Cc1ccccc1)N1CCOCC1 (centres undefined)
→ 17	7	-1	-3.7	2894	-3	-6
CCc1cc(=O)oc2cc(C)cc(OCC(C)=O)c12
→ 12	-4	-5	0.4	6873	x	1
Cc1ccc(O)c(C(=O)c2cnn(C(=O)Cc3csc(C)n3)c2)c1
→ 4	x	x	-1.2	2131	-10	x
COc1ccc(OCC(=O)Nc2ccc3oc(=O)ccc3c2)cc1
→ 1	-7	-10	3.6	4133	-11	-2

Reprinted from the part before: 5 entries, followed by the next part.
Value order: Sa ugtP lethal	Mtb hypoxia rep	Mtb hypoxia rep growth	Sa RN4220 lethal	Bead autofluor	PrP UTR inh	BJeLR lethal
O=C(NCCCn1ccnc1)C(Cl)(Cl)Cl
→ 2	-4	3	3.5	2719	-8	1
Oc1ccc(Cl)cc1C(C#Cc1ccccc1)N1CCOCC1 (centres undefined)
→ 17	7	-1	-3.7	2894	-3	-6
CCc1cc(=O)oc2cc(C)cc(OCC(C)=O)c12
→ 12	-4	-5	0.4	6873	x	1
Cc1ccc(O)c(C(=O)c2cnn(C(=O)Cc3csc(C)n3)c2)c1
→ 4	x	x	-1.2	2131	-10	x
COc1ccc(OCC(=O)Nc2ccc3oc(=O)ccc3c2)cc1
→ 1	-7	-10	3.6	4133	-11	-2
Cn1c(=O)n(Cc2ccc(Br)cc2)c2ccccc21
→ 7	5	5	4.1	4518	5	5
O=C(Nc1cccc(S(=O)(=O)NC2=NCCC2)c1)c1cc(-c2ccco2)nc2ccccc12
→ 8	-20	1	4.5	4168	-18	8
Cc1nnc2c3ccccc3c(-c3cccc4ccccc34)nn12
→ -4	2	-1	1.4	19934*	-15	x
C[N+](C)(C)c1ccccc1
→ -5	0	10	2.3	5196	-26	6
COc1cc(OC)c(C(=O)N/N=C/c2ccoc2)cc1OC
→ x	x	x	x	4961	-4	0
COc1cc(OC)c(OC)cc1/C=C1/C(=O)N=C(N)N1C
→ 5	-1	12	1.5	6029	-7	-2
Cc1ccc(C)c(NC(=O)CSc2nnc(-c3ccncc3)n2N)c1
→ -1	-2	-8	-1.7	21109*	-20	3
CN(CC(=O)NCc1ccc2c(c1)OCO2)CC(=O)Nc1ccc(F)c(F)c1F
→ 6	4	6	0.8	u	-24	x
CCNS(=O)(=O)c1ccc(CCC(=O)NC2CCCC2)cc1
→ -2	3	1	-6.6	2453	-9	-15
Cc1sc2ncnc(SCC(=O)Nc3ncccc3O)c2c1C
→ -1	5	8	13	8647	-13	x
Nc1ccc2c(c1)OCCOCCOCCOCCOCCO2
→ 2	-9	-8	0.4	4232	-18	3
CCOC(=O)Cn1ccc(-c2ccccc2)c(C#N)c1=O
→ 9	10	6	2.5	4390	-10	1
CCN(c1ccccc1)S(=O)(=O)c1cc2c3c(c1)CCN3C(=O)CC2
→ x	x	x	x	u	-21	1
O=C(O)C1CCN(C(=O)CSc2nnc(-c3ccccc3)o2)CC1
→ 4	3	6	1.3	3799	-11	x
CC1(C)OC2C(CO)OC(n3cnc4c(=S)nc[nH]c43)C2O1 (centres undefined)
→ 3	11	38	2.9	4454	-23	0
C/C(=N\NC(=S)Nc1ccc(C(C)C)cc1)c1ccc2c(c1)OCO2
→ x	x	x	x	4378	7	-15
On1c(-c2ccc(Cl)cc2)nc2ccccc21
→ -1	x	x	3.3	4586	-45	13
Cc1nn(-c2nc(-c3ccco3)cc(C(F)(F)F)n2)c(C)c1Br
→ -2	5	1	6.4	4344	-29	-2
COc1ccccc1OCCn1cc(C(=O)C(C)C)c2ccccc21
→ 3	3	8	4.0	3437	-12	-9
CCC(C)(C)NC(=O)C1CCN(c2nc(C)cc(C)n2)CC1
→ 8	2	3	1.6	16929*	-7	5
COC(=O)c1ccc(/C=C/C(=O)c2cccc(OC)c2)cc1
→ 14	8	0	10	2330	-13	0
Cc1cc(C)cc(NC(=O)CCCN2C(=O)C(c3ccccc3)Oc3cccnc32)c1 (centres undefined)
→ -7	14	2	-2.5	5505	-19	3
CN(C(=O)c1ccc2c(c1)SC1=NS(=O)(=O)CCN12)C(c1ccccc1)c1ccccc1
→ -5	-3	13	4.6	2591	-8	4
COC(=O)C1=C(C)N(Cc2ccccc2)C(=NCCc2cccnc2)NC1c1ccc(Br)cc1 (centres undefined)
→ 1	-8	3	-0.7	x	x	x
COc1ccc(CNC(=O)C2CCCN(S(=O)(=O)c3ccc4c(c3)C(C)(C)C(=O)N4C)C2)cc1 (centres undefined)
→ 4	-1	1	-1.1	4998	-15	9
